Rango release inh = inhibitors of RanGTP-induced Rango-importin beta complex dissociation | O95149+P62826 | Biochemical FRET Rango-importin beta, RanGTP-induced dissociation | Potency, µM (highest dose often 46.1 µM), inactives show at the highest dose activity change, negative = inhibition | 340,000 compounds, 0.071% hits; active means falling FRET ratio curve, often poorly fitted, with flat reads before Ran was added; inconclusive means other falling curves, or compound fluorescence or quenching; inactive means flat or rising ratio curve;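 further: potency means the concentration at half of the fitted maximal effect; % of control where 0% means no effect; nearly all actives have a fitted effect of over 45% in size; -100% = wells without RanGTP and RCC1; the record marks most hits as doubtful in a second field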
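Rango (0.1 uM)–importin beta (0.25 uM) complex; RanGTP-RCC1 trigger; 45 min RT; CFP/YFP FRET read.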
miR-21 FLuc = raises the signal of a miR-21 reporter | HeLa miR-21 FLuc reporter, luciferase, 48 h | Potency, µM (series often up to 38.3 µM), without a hit: top-dose reporter change, positive = more light | 340,000 tested, under 10 active | AID 2288; active = well fitted rising curve with a large enough effect; inconclusive = small, poorly fitted or top-dose-only effect; inactive = no such curve, though single readings can be large or run the other way;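 further: % of control where 0% means no effect; miR-21 action dims this reporter so a rising signal means less miR-21 action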
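HeLa cells stably expressing CMV-driven firefly luciferase with a downstream miR-21 binding sequence, endogenously expressing miR-21, were treated with titrations (up to about 40uM final) for 48 hours at 37 degree Celsius. Luciferase luminescence was read after lysis.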
Rango-impB inh = prevents formation of the Rango-importin beta complex | AID 540263 | Potency, µM (series often up to 92.2 µM), for the others: top-dose inhibition of complex formation | Q14974 | Rango CFP/YFP FRET sensor + importin beta, 45 min | 340,000 compounds, 0.031% hits; active = rising FRET ratio curve, often small or poorly fitted; inconclusive = mostly compound fluorescence or quenching in the first reads; inactive = flat curves in all reads;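 further: potency means the concentration at half of the fitted maximal effect; 0% = DMSO wells and 100% = buffer wells lacking importin beta; nearly all actives have a fitted effect of over 15% in size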
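FRET biosensor (snurportin 1 IBB flanked by EYFP and cerulean), 50 nM, with compound 5 min, then 0.125 microM importin beta in PBS, 1 mM DTT, 0.02% Tween-20, 0.1% BSA. CFP/YFP ratio read after 45 min at room temperature; pre-read flags interference.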
GLA inh pH 4.5 = inhibitors of human alpha-galactosidase A at pH 4.5. P06280. purified enzyme, 4-MU-alpha-Gal fluorescence, pH 4.5. activity change, negative = inhibition, % at 105 µM. 230,000 tested, under 10 active. AID 1467; inconclusive = small, poorly fitted or top-dose-only inhibition, or a rising curve; inactive = flat fitted curve, though single readings scatter; no compound was filed as active;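 further: 0% = full activity with enzyme and -100% = basal without enzyme; dose as in the result columns while the protocol names 77 µM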
Target sequence (P06280 whole entry, looked up): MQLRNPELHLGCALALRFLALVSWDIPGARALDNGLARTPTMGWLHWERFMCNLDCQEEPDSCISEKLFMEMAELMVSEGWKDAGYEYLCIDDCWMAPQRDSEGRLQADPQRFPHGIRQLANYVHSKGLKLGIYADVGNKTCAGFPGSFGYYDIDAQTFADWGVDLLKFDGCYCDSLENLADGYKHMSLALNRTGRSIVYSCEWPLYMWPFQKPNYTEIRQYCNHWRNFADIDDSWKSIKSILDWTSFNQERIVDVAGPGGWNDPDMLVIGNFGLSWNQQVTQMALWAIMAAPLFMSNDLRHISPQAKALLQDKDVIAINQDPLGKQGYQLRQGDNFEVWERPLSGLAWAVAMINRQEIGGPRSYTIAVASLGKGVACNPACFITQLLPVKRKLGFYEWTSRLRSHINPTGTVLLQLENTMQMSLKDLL
* marks the source's active call; other numbers are inactive results; ? = inconclusive; / = not tested or not shown; & = joins results of further samples. Only part of the results is shown (hit frequency here may not be typical).

Below each SMILES – miR-21 FLuc, Rango release inh, GLA inh pH 4.5, Rango-impB inh
- NC(=O)c1ccccc1N(Cc1ccccc1)S(=O)(=O)c1ccccc1
  -1%, 18%, 5, 0.6%
- COc1ccc(-c2nnn(CC(=O)NCCc3c[nH]c4ccccc34)n2)cc1OC
  -1%, -13%, 6, -3.6%
- O=C(NCc1ccncc1)C(=O)NCC1OCCN1S(=O)(=O)c1ccc(F)cc1 (stereo not given)
  0%, 7%, /, -1.5%
- COc1ccc(NC(=O)CS(=O)(=O)c2ccc(F)cc2)cc1
  -27%, -1%, /, -5.0%
- O=C(CCC(=O)N1CCOc2ccccc21)NCCCN1CCN(Cc2ccccc2)CC1
  2%, 13%, /, -0.4%
- O=C(NCc1ccc(F)cc1)C(c1ccncc1)N(C(=O)c1csnn1)C1CC1 (stereo not given)
  -1%, -6%, -29, 1.3%
- Cc1cccc(C(=O)NCCN(C)C)c1
  -1%, -3%, -1, -0.6%
- COc1ccc(-n2c(C)ccc2C)c([N+](=O)[O-])c1
  -3%, 5%, 9, -3.3%
- O=C(O)C(CCCCNS(=O)(=O)c1ccc(F)cc1)NS(=O)(=O)c1ccc(F)cc1 (stereo not given)
  0%&-2%, -8%&-4%, /, 0.5%&0.0%
- O=C(COc1ncnc2ccc(Br)cc12)Nc1ccc(N2CCOCC2)cc1
  4%, 5%, -6, -2.6%
- CCOC(=O)c1oc2c(CN3CCCCC3C)c(O)ccc2c(=O)c1-c1ccc(OC)c(OC)c1 (stereo not given)
  -9%, -7%, -3, ?
- Cc1ccc(CNC(=O)C2c3ccccc3C(=O)N3CCc4ccccc4C23)o1 (stereo not given)
  3%, -17%, -3, ?
- O=S(=O)(NC(=NC1CCCCC1)c1ccccc1)c1ccccc1
  -6%, 0%, /, -0.7%
- Cc1nc(Cl)c2c(n1)NC(=O)CO2
  -2%, -11%, 1, -0.8%
- C=C(C)c1nc(N)nc(N)n1
  1%, 6%, -3, 4.9%
- CCN1CCN(Cc2ccc(NC(=O)c3cc(NC(=O)C(=O)c4c[nH]c5ccccc45)cc(OC)c3)cc2C(F)(F)F)CC1
  ?, -1%, -13, -1.2%
- C=C(C)c1cccc(C(C)(C)NC(=O)N2CCC(C)CC2)c1
  2%, 20%, -2, 1.3%
- Cc1cc(C)c(S(=O)(=O)N2CCCC(C(=O)N3CCCC3)C2)c(C)c1 (stereo not given)
  1%, 1%, /, -0.1%
- Cn1c(N)c(C(=O)CCl)c(=O)n(Cc2ccccc2)c1=O
  1%, 0%, 8, -1.9%
- Cc1ccc(S(=O)(=O)N2CC(O)CC2C(=O)OCC(=O)Nc2ccc([N+](=O)[O-])cc2C(F)(F)F)cc1C (stereo not given)
  /, 1%, /, -2.2%
- CCOC(=O)N1CCN(C(=O)c2ccc3c(c2)NC(=O)C(N2CCOCC2)S3)CC1 (stereo not given)
  0%, 2%, 7, -2.8%
- CC1(OC(=O)CCc2ccccc2)C(=O)C=C2C=C(c3ccc(C#N)cc3)N(CCc3c[nH]c4ccccc34)C=C2C1=O (stereo not given)
  5%, -2%, 6&-1, ?
- COc1cc(OC)cc(C(=O)Nc2nc(CC(=O)NCCc3ccccc3)cs2)c1
  /, 19%, /, 0.0%
- COC(=O)c1sc(S(=O)(=O)Nc2ccc(C)c(C)c2)c(C(=O)OC)c1C
  -13%, 8%, -4, -3.3%
- COc1ccc(CC(=O)Oc2cc(C)[nH]c(=O)c2[N+](=O)[O-])cc1
  -3%, -5%, 0, -0.7%
- CSc1nnc(NC(=O)c2ccco2)s1
  -36%, 0%, /, -0.8%
- COc1cc(C(=O)N=c2sccn2C)c([N+](=O)[O-])cc1OC
  0%, 4%, /, 0.1%
- CCCCSc1nnc2nc(C)cc(C)n12
  -29%, -7%, 4, 2.0%
- O=C(N/N=C/c1cccc([N+](=O)[O-])c1)c1ccc2c(c1)OCCO2
  -16%, -2%, 1, -0.4%
- COc1ccc(S(=O)(=O)N2CCN(c3ccc(C)cc3C)CC2)cc1OC
  1%, -8%, -12, 1.2%
- COc1ccc(NC(=O)C2CCCN2c2nn3c(=O)cc(C)nc3s2)cc1 (stereo not given)
  -4%, -7%, /, -3.7%
- O=C(COC(=O)c1cc([N+](=O)[O-])ccc1NCCO)NCc1cccs1
  -4%, -18%, -7, 3.0%
- COc1ccc(C(=O)CCNc2ccc(F)cc2)cc1
  -18%, 0%, 6, -1.5%
- Cc1ccc(C)c(S(=O)(=O)N2CCCC2CNC(=O)C(=O)NCc2ccccc2C)c1 (stereo not given)
  /, 17%, /, -4.8%
- O=C(NCc1ccc(F)cc1)c1cc2ccccc2o1
  -18%, -8%, /, -2.0%
- Cn1nccc1C(=O)OCC(=O)Nc1ccccc1
  3%, 7%, /, -0.6%
- Cn1c(SCC(=O)N/N=C/c2ccco2)nc2ccccc21
  -5%, -9%, 5, 1.8%
- CCC(NC(=O)c1ccc2nc(Cc3ccc(OC)cc3)oc2c1)c1ccncc1 (stereo not given)
  ?, 23%, /, 0.5%
- Cc1n[nH]c(=O)nc1NC(C)c1ccccc1 (stereo not given)
  -4%, -7%, 1, 1.8%
- Cc1ccccc1NS(=O)(=O)c1ccc(NC(=O)c2nc3ncccn3n2)cc1
  -1%, 5%, 3, -0.5%
- Nc1nc(-c2cc(-c3ccccc3)no2)cs1
  -53%, -3%, /, -2.7%
- O=C(NC(Cc1ccccc1)C(=O)O)/C(=C\c1ccco1)NC(=O)c1ccco1 (stereo not given)
  -8%, -11%, 0, -0.1%
- COc1ccc(N2CCN(C(=O)c3nn(C)c4c3CS(=O)(=O)c3ccccc3-4)CC2)cc1
  -1%&-3%, 16%, /, -0.2%
- CCN(CC)C(=O)C1CCN(CC2CC=CCC2)CC1 (stereo not given)
  -3%, -2%, -4, -0.6%
- CC1CCCCN1Cc1c(C#N)c2ccccc2n1C (stereo not given)
  -9%, -12%, 9, -0.1%

Part of the list above in order of length of the SMILES, smallest number first:
Below each SMILES – miR-21 FLuc, Rango release inh, GLA inh pH 4.5, Rango-impB inh
- Cc1n[nH]c(=O)nc1NC(C)c1ccccc1 (stereo not given)
  -4%, -7%, 1, 1.8%
- COc1ccc(C(=O)CCNc2ccc(F)cc2)cc1
  -18%, 0%, 6, -1.5%
- CCN(CC)C(=O)C1CCN(CC2CC=CCC2)CC1 (stereo not given)
  -3%, -2%, -4, -0.6%
- Cn1c(SCC(=O)N/N=C/c2ccco2)nc2ccccc21
  -5%, -9%, 5, 1.8%
- O=C(COC(=O)c1cc([N+](=O)[O-])ccc1NCCO)NCc1cccs1
  -4%, -18%, -7, 3.0%
- Cc1ccc(C)c(S(=O)(=O)N2CCCC2CNC(=O)C(=O)NCc2ccccc2C)c1 (stereo not given)
  /, 17%, /, -4.8%

Next section.
Below each SMILES – miR-21 FLuc, Rango release inh, GLA inh pH 4.5, Rango-impB inh
- O=C(NC1CCCc2ccccc21)c1ccc(S(=O)(=O)N2CCOCC2)cc1 (stereo not given)
  1%, -1%, 3, 0.7%
- CCOc1ccc(OCC)c(NC(=O)CN2CCN(c3cc(C)ccc3C)CC2)c1
  21%, 14%, -1, 7.6%
- CCN(Cc1nc(-c2ccccc2)no1)C(=O)c1ccc2c(c1)OCO2
  1%, 25%, /, 4.5%
- COc1nc(OC)nc(N2CCC(C(=O)Nc3cccc4c3CCCC4)CC2)n1
  -6%, -10%, 9, 0.4%
- O=C(NC(=S)Nc1c(Cl)ccc2nsnc12)c1ccco1
  -4%, 19%, -12, 5.4%
- CN(C(=O)c1cccc(NC(=O)Cc2ccc(NC(=O)C3CCCN(C(=O)C4CCC4)C3)cc2)c1)C1CCCC1 (stereo not given)
  /, 21%, /, 0.8%
- COCCNc1nc2c(c(=O)n(Cc3cccc(Br)c3)c(=O)n2C)n1C
  0%&-7%, 27%, /, -2.6%
- O=C(c1csc2c1CCCC2)N1CCN(c2ncccn2)CC1
  -7%, -12%, -6, -2.1%
- CN(CC(=O)Nc1ccccc1Br)C(=O)CN1CCN(c2ccccc2Cl)CC1
  /, 4%, /, 1.0%
- COc1cccc(C2C(C(=O)c3ccco3)=C(O)C(=O)N2CCN(C)C)c1OC (stereo not given)
  -4%, -14%, -7, -0.2%
- CC(=O)Nc1ccccc1NC(=O)c1cc(C)ccc1C
  1%, 0%, 0, -0.9%
- CCN(CC)CCN1C(=O)c2ccccc2NC1c1ccccc1F (stereo not given)
  -1%, 21%, -11, -2.6%
- CC(C)NC(=O)CCS(=O)(=O)c1ccc(Br)s1
  -8%, 0%, -4, 2.8%
- O=C(O)/C=C/C(=O)Nc1cccc2cccnc12
  -4%, -9%, 9, 0.8%
- Cc1c(C(=O)c2ccccc2)c2ccccn2c1CCC#N
  -14%, 5%, 1, 4.1%
- CC(C)Cn1c(-c2csc3c2CCCC3)n[nH]c1=S
  14%, 7%, 6, -0.3%
- [2H]C(CCOS(N)(=O)=O)c1ccccc1 (stereo not given)
  0%, 17%, /, -3.6%
- O=C(CN1C(=O)C2CCCCC2C1=O)Nc1cccc([N+](=O)[O-])c1 (stereo not given)
  /, 3%, /, 0.9%
- COc1ccc(NC(=O)Cc2nnc(SCC(=O)Nc3ccccc3)n2C)cc1
  0%, 0%, /, -1.3%
- O=C(CSc1ccsc1[N+](=O)[O-])NCCc1ccccc1
  0%, 1%, 8, -2.0%
- O=C(CSc1nnc(-c2ccc(Cl)s2)o1)N1CCOCC1
  -25%, /, 3, /
- COC(=O)c1cc(Br)c(=O)n(-c2ccc(OC)cc2)c1
  0%, -9%, 7, -2.5%
- O=C(NCc1ccc(Cl)cc1Cl)C1CCN(S(=O)(=O)c2ccc3c(c2)OCCCO3)CC1
  4%, -1%, -5, -0.3%
- CC(C)(C)CN1CCC(Oc2cccc(C(=O)N3CCC[C@H]3CO)c2)CC1
  1%, -5%, /, ?
- O=C(CN1CCC(NC(=O)C2CCCCC2)CC1)Nc1cccc(F)c1
  -4%, 0%, /, 1.1%
- CCCNC(=O)C(=O)c1cccn1-c1ccsc1C(=O)OC
  -3%, 49%, -9, -7.2%
- COc1ccc(CN(C)C(=O)C(Cc2ccccc2)NC(=O)c2ccccc2)c(OC)c1 (stereo not given)
  /, -10%, /, 0.9%
- O=C(COc1ccc(Cl)cc1Cl)N/N=C/c1ccc[nH]1
  -8%, -10%, /, -0.2%
- COc1ccc(CCN2CN(S(=O)(=O)c3ccccc3)c3nc4ccccc4nc32)cc1
  -5%, -26%, -13, -0.9%
- CS(=O)(=O)N(Cc1ccccc1)c1ccc(C(=O)Nc2ccc(C(N)=O)cc2)cc1
  -3%, -4%, /, -0.5%
- Cc1nn(-c2cc(Cl)ccc2N)c(=O)c2ccccc12
  2%, 1%, -10, 3.6%
- CCOC(=O)CN1C(=O)SC(CC(=O)Nc2nccs2)C1=O (stereo not given)
  0%, 2%, 1, -0.1%
- Cc1ccc(S(=O)(=O)N2[C@@H](c3cccc4ccccc34)C(C(=O)O)=C[C@H]2C(C)(C)C)cc1
  /, -11%, /, -0.8%
- CCn1c(SCCN2CCCCC2)nnc1-c1ccc(S(=O)(=O)N2CCOCC2)cc1
  -5%, -5%, -4, -0.7%
- CC(=O)c1cc(CN2CCC(n3nccc3NC(=O)c3ccccc3Cl)CC2)cs1
  -1%, 19%, /, -1.0%
- COc1ccc([N+](=O)[O-])cc1NC(=O)Cn1ccsc1=N
  -7%, -3%, -1, ?
- C=CCn1c(COc2ccccc2)nnc1SCC(=O)N/N=C/c1ccc(C)cc1
  -2%, -26%, 7, 5.0%
- CN(C)c1nc(Oc2ccc(C(=O)OCC(=O)Nc3ccccc3)cc2)nc(N(C)C)n1
  -3%, 3%, -27, 1.2%
- COc1ccc(N(CC(=O)Nc2ccccc2F)S(=O)(=O)c2ccc(OC)c(OC)c2)cc1
  2%, -4%, /, 0.4%
- COc1ccc(NC(=O)/C=C/c2ccco2)cn1
  -38%, -12%, -3, ?

Reformatted as tab-separated lines: part of the list above
mol	miR-21 FLuc	Rango release inh	GLA inh pH 4.5	Rango-impB inh
O=C(CCC(=O)N1CCOc2ccccc21)NCCCN1CCN(Cc2ccccc2)CC1	2%	13%	/	-0.4%
O=C(NCc1ccc(F)cc1)C(c1ccncc1)N(C(=O)c1csnn1)C1CC1 (stereo not given)	-1%	-6%	-29	1.3%
